FEN1 inhibitor = human FEN1 inhibition; P39748; Recombinant FEN1 flap cleavage, fluorescence, 15 min; Potency, µM (series often up to 114 µM), for inactives: at the highest dose activity change, negative = inhibition, actives largely listed as inhibitors; 390,000 compounds, 0.35% hits; also: nearly all actives have a fitted effect of over 65% in size
Target sequence (P39748 whole entry, looked up): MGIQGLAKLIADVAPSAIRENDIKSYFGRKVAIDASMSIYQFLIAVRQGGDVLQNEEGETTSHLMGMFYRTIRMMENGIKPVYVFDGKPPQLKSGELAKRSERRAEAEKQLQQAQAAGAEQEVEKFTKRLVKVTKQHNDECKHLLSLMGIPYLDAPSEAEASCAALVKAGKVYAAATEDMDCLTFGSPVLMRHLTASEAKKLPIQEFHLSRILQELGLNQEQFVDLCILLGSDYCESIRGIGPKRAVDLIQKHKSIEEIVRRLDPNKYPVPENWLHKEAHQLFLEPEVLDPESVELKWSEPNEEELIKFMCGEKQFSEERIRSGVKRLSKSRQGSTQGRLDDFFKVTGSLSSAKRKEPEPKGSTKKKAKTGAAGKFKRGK
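Read-out was taken twice, immediately and after 15 min, following addition of 50 nM substrate to 10 nM FEN1 that had sat with test compound for 15 min at room temperature. Curves came from a four-parameter Hill model.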
N370S GC mod = inhibitors or activators of N370S glucocerebrosidase for Gaucher disease. Potency, µM (series often up to 59.4 µM), without a hit: top-dose activity change, negative = inhibition, usual class: inhibitors. P04062. 330,000 compounds, 0.092% hits. N370S GC spleen homogenate, 4MU-glucoside fluorescence;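 also: 0% = full enzyme activity and -100% = no enzyme basal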
An asterisk follows results filed as active; nt = no result given; [ ] = another dose, or the depositor's remark. Calls follow the shape of the dose curve; as a rule, active = well fitted curve in the direction sought with a large enough effect; inconclusive = small, poorly fitted or top-dose-only effect, or another doubt; inactive = no such curve, though single readings can be large; an effect the other way counts as inactive or inconclusive. Unless noted, % is scaled to controls: 0 for no effect and ±100 for the full control effect; potency is read from the fitted curve at half-maximal effect. Some of the compounds tested; most or all hits stand in other tables.

Values run as follows: FEN1 inhibitor	N370S GC mod
O=C(c1cc2c(=O)oc3ccccc3c2s1)N1CCN(c2ccccc2)CC1
  18%	nt
CCOC(=O)c1cc(CC)sc1NC(=O)CCC(=O)O
  -3%	3%
COC(=O)CCN(c1ccccc1)S(=O)(=O)c1ccc(OC)cc1
  -12%	0%
COc1ccccc1C(=O)n1nc(-c2ccccc2)nc1N
  12%	12%
CCCCCCn1c(N2CCC(C(N)=O)CC2)nc2c1c(=O)n(C)c(=O)n2C
  -8%	0%
CCOc1cc(N2CCOCC2)c(OCC)cc1NC(=O)COc1ncnc2ccccc12
  2%	4%
CCOC(=O)c1ccc(Nc2c(-c3ccc(N(C)C)cc3)nc3nc[nH]n23)cc1
  -8%	nt
COc1ccc(CN2CCNC(=O)C2CC(=O)N2CCCN(C(C)=O)CC2)c(OC)c1 (centres undefined)
  19%	1%
COc1cc(C2c3c(n[nH]c3C)C(=O)N2c2ccc(C)cc2)ccc1O (centres undefined)
  3%	-16%
O=C(CC1SC(N2CCCCC2)=NC1=O)Nc1ccc(C(=O)O)cc1 (centres undefined)
  -11%	nt
O=C(NCC1CCCO1)C1CCCN1C(=O)NC1CCCCC1 (centres undefined)
  -3%	-11%
CC(C)(C)OC(=O)N1CCC(c2c(C(=O)N3CCN(c4ccccn4)CC3)cnn2-c2ccc(F)cc2)CC1
  -10%	nt
O=C(NCC1CCCO1)c1nn2cccnc2c1Cl (centres undefined)
  0%	1%
O=C(Nc1ccc2c(c1)OCO2)C1CC(=O)N(c2cccc(Cl)c2)C1 (centres undefined)
  0%	-1%
Cc1nc2sc(C(c3ccco3)N3CC(C)OC(C)C3)c(O)n2n1 (centres undefined)
  -9%	-24%
O=CN1CCc2scc[n+]2-c2ccccc21
  10%	3%
COC(=O)Cn1cnc2c(cnn2-c2ccccc2)c1=O
  16%	-2%
COc1ccc(N2CCN(C(=O)CCS(=O)(=O)c3cccc4nsnc34)CC2)cc1
  5%	9%
CCOC(=O)Cn1nc(C)c(-c2ccccc2)c1N
  -15%	12%
NC(=O)c1ccccc1NC(=O)c1cc(S(=O)(=O)N2CCCCC2)ccc1N1CCOCC1
  0%	nt
O=C(c1cc2c(s1)-c1ccccc1OC2)N1CCN(c2ccc(F)cc2)CC1
  -1%	nt
O=C(NC1CCCC1)C(c1ccncc1)N(CC1CCCO1)C(=O)Cn1nnc(-c2cccs2)n1 (centres undefined)
  0%	7%
CCOc1ccc(C(=O)NC(C(=O)NCCc2ccc(S(N)(=O)=O)cc2)C(C)C)cc1 (centres undefined)
  7%	13%
CC(=O)N1CCN(C(=O)COC(=O)COc2c(C)cc(C)cc2C)CC1
  0%	nt
Fc1ccc(CSc2ncnc3ccccc23)cc1
  4%	19%
COCC(=O)Nc1nnc(SCC(=O)N2C(C)CCCC2C)s1 (centres undefined)
  3%	-17%
CC(C)(C)OC(=O)NC(CCCCNC=O)C(=O)O (centres undefined)
  -18%	2%
CCCCNC(=O)CN1C(=O)NC2(CCOc3ccccc32)C1=O (centres undefined)
  46%[activator]	0%
CC1CN(C(=S)Nc2ccc(Br)cc2)CC(C)O1 (centres undefined)
  20%	0%
O=[N+]([O-])c1cc(-c2ccc(/C=N/n3cnnc3)o2)ccc1Cl
  5%	1%

Values run as follows: FEN1 inhibitor	N370S GC mod
C=CCn1c(SCC(=O)OC)nc2sc3c(c2c1=O)CCN(C)C3
  nt	7%
Nc1nc(N)nc(-c2ccccc2)n1
  5%	0%
COc1ccc(CNS(=O)(=O)c2c(C)[nH]c(C)c2C(=O)N2CCCCC2)cc1
  -19%	-12%
COc1cc(/C=N\Nc2ccc([N+](=O)[O-])cn2)ccc1OCC(=O)O
  nt	-8%
C/C(Nc1ccc(F)cc1)=C(/C#N)C(N)=O
  -3%	-13%
CCOC(=O)Nc1ccc(C)cc1Br
  -1%	3%
CC(=O)N1CCCc2cc(S(=O)(=O)N3CCC(C(=O)NCc4ccc(C)cc4)CC3)ccc21
  -2%	nt
N#CNC(=Nc1cccc(F)c1)SCc1ccccc1F
  -15%	4%
O=C(NCc1ccco1)C1CC2CCC1C2 (centres undefined)
  -2%	1%
CCOc1ccc(Nc2c3ccccc3nc3ccccc23)cc1
  45µM*	27%
COc1ccc(S(=O)(=O)N2CCC(C(=O)N[C@@H](C)C(=O)NC3CC3)CC2)cc1
  -1%	-5%
Cc1ccc2nc(-c3ccccc3Cl)cc(C(=O)Nc3cc(C)on3)c2c1
  -20%	1%
C=CCOc1ccc(C(=O)n2cc(C(=O)OC)c3ccccc32)cc1
  -4%	-6%
O=C1CN(S(=O)(=O)c2cccc(C(=O)O)c2)c2ccccc2N1
  11%	-7%
COc1ccc(N(CC(=O)NC2CCCCCCC2)S(=O)(=O)c2c(C)nn(C)c2C)cc1
  -4%	2%
CCc1cccc(NC(=O)COc2cc(=O)n(CC)c3ccccc23)c1
  -1%	nt
CCC1CN(C(=O)N2CCC(C(=O)N3CCN(c4ccccc4)CC3)CC2)c2ccccc2O1 (centres undefined)
  8%	nt
COCCCn1c(Cc2csc(Nc3cccc(Cl)c3)n2)nnc1SCC(=O)OC1CCCCC1
  -20%	-1%
C=CCOc1nc(N2CCCC2)nc(N2CCCC2)n1
  7%	14%
CCCCn1ccnc1C(=O)c1cccc(S(=O)(=O)N2c3ccccc3CC2C)c1 (centres undefined)
  -6%	21%
CCN1CCN(C(c2cccnc2)c2cc(Cl)c3cccnc3c2O)CC1 (centres undefined)
  -18%	-18%
CC(C)CCN1CCN(Cc2nc3ccccc3s2)CC1CCO (centres undefined)
  6%	-6%
CCn1c(SCC(=O)NC2CC2)nnc1-c1cccc(OC)c1
  0%	-3%
CCc1ccc(NC(=O)CCc2nc3sc4c(c3c(=O)[nH]2)CCCC4)cc1
  0%	1%
COc1ccc(NC(=O)c2cccc3c2C(=O)c2ccc(-c4ccc(F)cc4OCc4ccccc4)cc2S3(=O)=O)cc1
  -5%	nt
CCC(CC)C(=O)NCCc1ccc(OC)cc1
  9%	1%
O=C(NCCCc1ccccc1)c1cnc2n(c1=O)CCS2
  0%	21%
Cc1cccc(CNS(=O)(=O)c2ccc(-c3ccc(=O)[nH]n3)s2)c1
  -6%	-4%
CCn1cc(/C=C(\NC(=O)c2ccc(OC)c(OC)c2)C(=O)N2CCOCC2)c2ccccc21
  12%	6%
CCN(CC)CCOC(=O)C1(c2ccc([N+](=O)[O-])cc2)CCCC1
  13%	2%

Values run as follows: FEN1 inhibitor	N370S GC mod
O=C(O)c1nn(CC(=O)N2CCN(S(=O)(=O)c3ccc(Cl)cc3)CC2)c(=O)c2ccccc12
  5%	-11%
O=C(CO)[C@@H](O)C(O)[C@@H](O)CO (some centres undefined)
  nt	-1%
O=S(=O)(Nc1ccccc1)c1ccc(F)cc1
  12%	5%
CCCN(CC1CC1)C(=O)CSc1nnc(-c2cc(-c3cccs3)nc3ccccc23)o1
  6%	19%
Cc1ccc(S(=O)(=O)CNC(=O)c2ccccc2)cc1
  -1%	-7%
O=C(COc1ccc(S(=O)(=O)N2CCOCC2)cc1)Nc1ccc(Cl)c(C(F)(F)F)c1
  -12%	0%
COc1ccc(-n2cc3c(-c4cccc(Br)c4)nnc(C)c3n2)cc1
  79µM*	-13%
O=C(NCc1ccccc1)N1CCC(CO)(Cc2cccc(F)c2)CC1
  -1%	1%
COc1ccc(-n2c(C)cc(-c3csc(NC(=O)c4ccc(S(=O)(=O)N(C)C)cc4)n3)c2C)cc1
  -4%	-4%
C/C(=N\OCC(=O)O)c1ccc(Cl)cc1
  1%	3%
CC(C)OCCCN1C=C2C(=O)C(C)(OC(=O)CCc3ccccc3)C(=O)C=C2C=C1c1ccc(C#N)cc1 (centres undefined)
  -4%	8%[12.8 µM]
Cc1nn(-c2ccc(F)cc2)c(Cl)c1/C=N/NC(=O)c1cccc(S(=O)(=O)N2CCCC2)c1
  -5%	-4%
Cn1nc(C(=O)Nc2cccc(Cl)c2)cc1C(=O)Nc1cccc(Cl)c1
  -8%	-5%
O=C1CC(C(=O)Nc2ccc(Br)cc2)C2(CCCC2)O1 (centres undefined)
  nt	1%
CCOC(=O)c1c(C(=O)OCC)c(C)n(Cc2cc(OC)c(OC)c(OC)c2)c1C
  2%	9%
O=C(Nc1ccc2c(c1)CCCN2C(=O)c1ccccc1)c1ccccc1Br
  -16%	7%
CC(C)OCc1ccc(C(=O)N2CCN(S(=O)(=O)c3ccc(Br)s3)CC2)cc1
  9%	nt
COc1ccc(/C=C(\C#N)C(=O)OCC(=O)NCc2ccc(Cl)cc2)cc1
  nt	-1%
CCc1ccc(NC(=O)COc2ccc(/C=C(/C#N)c3nc4ccccc4[nH]3)cc2OC)cc1
  -19%	9%
NC(=O)CC(NC(=O)Cc1ccc(Br)cc1)c1ccc(NCc2ccc(F)cc2)c([N+](=O)[O-])c1 (centres undefined)
  15%	4%
COc1cccc(-n2c(Cc3cc(=O)[nH]c(=O)[nH]3)nnc2SCC(=O)NC2CCCCC2)c1
  -6%	7%
COc1ccc2sc(-c3ccccc3OC)c(-c3ccc(OC)nc3)c2c1
  17%	nt
COC(=O)c1ccc2[nH]c3c(c2c1)CC(C)CC3 (centres undefined)
  -26%	1%
CCN(CC)c1ccc(NC(=O)c2cnccn2)cc1S(=O)(=O)Nc1ccc(OC)cc1
  2%	7%
C[C@H](NC(=O)c1ccccc1Cl)C(=O)OCc1cn2cc(Cl)ccc2n1
  -8%	-6%
COc1ccccc1CNC(=O)CN1C(=O)NC2(CCOc3ccccc32)C1=O (centres undefined)
  -1%	nt
COc1ccc(S(=O)(=O)N2CCCC(C(=O)N3CCN(c4ccccc4)CC3)C2)cc1Cl (centres undefined)
  -13%	-1%
Cc1ccc(S(=O)(=O)/N=C2/C=C(C3C(=O)CC(C)(C)CC3=O)C(=O)c3ccccc32)cc1
  -16%	30%
COc1ccc(CC(=O)NNC(=O)CCc2ccccc2)cc1
  1%	-7%
CC1CCCN(c2ccc([N+](=O)[O-])cc2C(=O)c2ccccc2)C1 (centres undefined)
  -2%	2%

Values run as follows: FEN1 inhibitor	N370S GC mod
CCCn1c2c(c(O)c(C(=O)Nc3nc4ccccc4s3)c1=O)CCCC2
  -7%	-2%
CC(C)N1C(=S)N(Cc2ccco2)C(=O)C1CC(=O)Nc1ccccc1 (centres undefined)
  -4%	5%
CC(Oc1ccccc1)C(=O)Nc1cccc(F)c1 (centres undefined)
  -12%	9%
O=[N+]([O-])c1cccc(S(=O)(=O)N2CCN(S(=O)(=O)N3CCCCCC3)CC2)c1
  -12%	-3%
COC(=O)c1sccc1NC(=O)c1ccoc1C
  -4%	6%
O=C(Nc1nccs1)[C@@H]1CCCN1C(=O)c1cccs1
  5%	2%
CCn1cc(C(=O)NCCCN2CCC(C)CC2)c(=O)c2cc(S(=O)(=O)N3CCOCC3)ccc21
  -15%	2%
Cn1c(CCN2CCCCC2)nc2cc(NC(=O)COc3ccccc3)ccc21
  -16%	-5%
O=C(c1cc2ccccc2oc1=O)N(Cc1cccc(Br)c1)C1CCS(=O)(=O)C1 (centres undefined)
  -18%	9%
CCN(CC)S(=O)(=O)c1ccc(OC)c(NC(=O)c2cc(C)on2)c1
  4%	-6%
C[C@H]1COC(=O)[C@@H](NC(=O)OCC2c3ccccc3-c3ccccc32)C/C=C\C[C@H](CC(=O)NCCO)C(=O)N1
  -11%	nt
CCCNS(=O)(=O)c1cccn1-c1ncc(C(F)(F)F)cc1Cl
  -2%	11%
COc1ccccc1N(CCOc1ccccc1)S(=O)(=O)c1ccccc1
  0%	nt
Cc1ccc(NC(=S)NC(NC(=O)N(C)C)C(Cl)(Cl)Cl)cc1 (centres undefined)
  -1%	-19%
COc1cc(OC)c(NC(=O)CCS(=O)(=O)c2ccc3c(c2)oc(=O)n3C)cc1Cl
  -6%	nt
CC(C)c1nnc(NC(=O)CSc2ccccc2)s1
  -7%	7%
Cc1nnc2c3ccccc3c(Cl)nn12
  -13%	5%
OCC1(Cc2ccccc2)CCCN(Cc2cn[nH]c2-c2ccccc2)C1 (centres undefined)
  -3%	18%

Seven successive entries already listed, for reference:
Values run as follows: FEN1 inhibitor	N370S GC mod
O=C(c1cc2c(=O)oc3ccccc3c2s1)N1CCN(c2ccccc2)CC1
  18%	nt
CCOC(=O)c1cc(CC)sc1NC(=O)CCC(=O)O
  -3%	3%
COC(=O)CCN(c1ccccc1)S(=O)(=O)c1ccc(OC)cc1
  -12%	0%
COc1ccccc1C(=O)n1nc(-c2ccccc2)nc1N
  12%	12%
CCCCCCn1c(N2CCC(C(N)=O)CC2)nc2c1c(=O)n(C)c(=O)n2C
  -8%	0%
CCOc1cc(N2CCOCC2)c(OCC)cc1NC(=O)COc1ncnc2ccccc12
  2%	4%
CCOC(=O)c1ccc(Nc2c(-c3ccc(N(C)C)cc3)nc3nc[nH]n23)cc1
  -8%	nt

Compound activity from PubChem BioAssay.
